# GIV Gai3 FP: GIV-Galpha-i interaction inhibition; P08753; Galpha-i3/FITC-GIV peptide fluorescence polarization, 90 min; hits give low values; scaled: aluminum fluoride 0%, vehicle 100%; percent of control (FP), % (concentration not given with the values); 210,000 tested, 0.42% active; AID 1224905;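 active means replicate mean at 85% of control or lower, very high polarization wells dropped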;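 further: wells of about 15 µL received 100 nL stock; the first replicate is given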
# Target sequence (P08753 whole entry, looked up): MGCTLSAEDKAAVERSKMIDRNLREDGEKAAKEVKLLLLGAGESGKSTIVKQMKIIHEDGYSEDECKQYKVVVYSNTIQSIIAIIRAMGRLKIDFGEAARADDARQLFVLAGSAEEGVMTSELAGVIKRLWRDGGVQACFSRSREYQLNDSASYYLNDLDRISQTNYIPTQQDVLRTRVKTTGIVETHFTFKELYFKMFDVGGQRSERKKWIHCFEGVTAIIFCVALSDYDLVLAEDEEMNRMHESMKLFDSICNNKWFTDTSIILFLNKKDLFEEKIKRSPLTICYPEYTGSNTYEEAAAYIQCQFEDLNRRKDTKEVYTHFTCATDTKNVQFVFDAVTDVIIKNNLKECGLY
# HCMV UL50-53 inh: cytomegalovirus nuclear egress complex inhibition; HTRF UL50-UL53 interaction, normalized percent inhibition; inhibition, % (concentration not given with the values); 190,000 tested, 0.15% active; AID 1918969;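 active means both replicates at 50% or more, plus weaker picks with an unusually low signal ratio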;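 further: stock transfer was 100 nL into about 20 µL; 0% = negative control wells and 100% = wells with untagged competitor protein; inactives centre near -12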
# Sa growth inh: S. aureus growth inhibition. S. aureus RN4220 growth, OD600, 20 h, 42 °C; hits give low values. relative growth, % (test concentration not listed). 170,000 tested, 0.53% active;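 active means growth at 42 °C up to 50% and 20 or more points under that at 30 °C, or under 10% at both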;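 further: 300 nL library stock went into each well; scaled to the means of positive and negative controls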
# Sa growth inh second temp: second read-out of Sa growth inh, no call of its own (marks repeat the call); relative growth, %; measured here: growth at 30 °C;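 optical density after 20 h as mean of two plates; 100% = untreated growth and lower means inhibition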
# * = called active by the depositor; . = no result given; & = joins results of further samples.
SMILES,GIV Gai3 FP,HCMV UL50-53 inh,Sa growth inh,Sa growth inh second temp
C[N+]1(CC2COC(C3CC=CCC3)O2)CCCC1 (stereo not given),101,.,98,90
Clc1cccc2c(N3CCCCCC3)cnnc12,83*,-105,112,96
CC1CC(=O)c2cnc(N3CCc4ccccc43)nc2C1 (stereo not given),104,.,100,84
Cc1ccc(N2C(=O)CC(=O)N(c3ccc(C)cc3C)C2=O)c(C)c1,.,0,108,95
Fc1ccc(CN2CCC(N3CCc4ccccc4C3)CC2)cc1,100,5,92,85
On1c(-c2ccc(Cl)cc2Cl)nc2ncccc21,110,-17,.,.
Cc1cc(N2CCCC2)n2nc(C)c(-c3ccccc3)c2n1,105,-3,68,93
O=c1c(N2CCN(S(=O)(=O)c3ccc(F)cc3)CC2)coc2ccccc12,102,11,105,105
COc1ccc(-c2nc(CS(=O)CC(=O)NC3CCCC3)c(C)o2)cc1 (stereo not given),105,-29,95,89
CC(C)C(=O)N=C1NC(=O)CS1,101,-10,81,81
CCc1ccc(-n2c(=O)c3ccccc3n(CC(=O)C(C)(C)C)c2=O)cc1,103,.,98,87
O=C(O)c1ccc(NC(=O)c2cn(-c3ccccc3)nc2-c2ccc(Br)cc2)cc1,105,-55,88,87
Cc1ccccc1NCc1cccn1-c1nnc(N2CCC(C)CC2)s1,104,.,71,85
CCC(O)c1nc2ccccc2n1CC(=O)N1CCOCC1 (stereo not given),104,-9,.,.
CC(C(=O)Nc1ccc(Br)cc1)N1CCN(c2ccccc2)CC1 (stereo not given),.,-22,76,88
N[C@@H](COP(=O)(O)O)C(=O)O,100,-29&-2,.,.
Cc1cccc(-n2c(-c3ccccc3F)nc3c(cnn3-c3ccccc3)c2=O)c1,99,-8,.,.
CN1CCN(C(=O)c2ccc3c(c2)N(Cc2ccc(F)cc2)C(=O)c2ccccc2S3(=O)=O)CC1,103,-11,111,89
CCCN(Cc1cccs1)C(=O)Nc1ccc(Cl)cc1,101,-23,82,80
CC(NC(=O)Nc1cccc(C(F)(F)F)c1)c1nc2ccccc2[nH]1 (stereo not given),.,-12,0.5*,0.7*
O=C(NCc1ccco1)c1c(NC(=O)C2COc3ccccc3O2)sc2c1CCC2 (stereo not given),.,-12,91,92
CNC(=O)Cc1ccc(NC(=O)N2CCCCc3ccccc32)cc1,100,-9,94,91
CC1(C)CC(=O)C2=C(C1)Nc1ccc3ccccc3c1C2c1ccco1 (stereo not given),104,11,108,103
CC(Sc1nnc2c(n1)[nH]c1ccccc12)C(=O)NC1CC1 (stereo not given),103,-88,81,79
CCOc1ccccc1NC(=O)c1c(NCc2ccc(OC)c(OC)c2OC)sc2c1CCC(C)C2 (stereo not given),107,.,88,99
O=C(Nc1cccc(O)c1)c1cccc(S(=O)(=O)Nc2cccc(O)c2)c1,97,-3,92,95
CC12CN3CC(C)(CN(C1)C3C1C(=O)Nc3ccccc31)C2 (stereo not given),104,.,124,87
CN(C)S(=O)(=O)c1ccc(C(=O)NC2CCCc3ccccc32)cc1 (stereo not given),.,-6,92,90
Cc1cccc(-c2nc3nc(C)cc(N4CCCC4)n3n2)c1,102,-15,.,.
Cc1nn(CCCC(=O)NCc2cccc(F)c2)c(=O)c2nn(-c3ccccc3)c(C)c12,99,.,96,86
Cc1noc(C)c1CSc1nc2ccccc2c(=O)n1Cc1ccccc1Cl,.,-10,102,96
CC(C)(C)N/N=C/c1cccc(OC(F)F)c1,.,-14,106,82
CCOC(=O)C1=C(N)OC2=C(C(=O)CC(C)(C)C2)C1c1cc([N+](=O)[O-])c(C)s1 (stereo not given),107,-1,.,.
Cn1cnnc1SC1CCCCC1NS(=O)(=O)c1ccc(Cl)cc1 (stereo not given),99,-3,112,74
CCN1CCCC1CNC(C)C(=O)Nc1ccc(Oc2ccccc2)cc1 (stereo not given),.,0,96,92
CCOC(=O)C(C#N)c1nc2ccccc2nc1N(CC)CC (stereo not given),.,-14,98,89
O=C(CCc1nnc2ccc(NCc3ccccc3)nn12)NC1CCCC1,108,-16,103,82
O=C(O)C1C2C=CC(C2)C1C(=O)N1CCN(C/C=C/c2ccccc2)CC1 (stereo not given),103,-4,80,87
CC(=O)Nc1no[n+]([O-])c1C(N)=O,102,-6,94,98
O=S(=O)(c1cccc2nonc12)N1CCCCCC1,107,-45,.,.
OCCNc1nc2nonc2nc1NCCO,100,-97,94,73
O=C1/C(=C/c2ccccc2)COc2ccccc21,95,-12,.,.
OCCN(CCO)Cc1ccccc1,97,-15,73,77
N#Cc1c(N)nc(SCC(=O)c2ccc(F)cc2)c(C#N)c1-c1ccc(O)cc1,99,1,.,.
Cc1cccc(CCNC(=O)C2CCN(S(=O)(=O)c3cccc4cccnc34)CC2)c1,102,.,92,94

# Sorted by value in GIV Gai3 FP (largest number first): 3 of the compounds above.
Structure	GIV Gai3 FP	Sa growth inh second temp
Fc1ccc(CN2CCC(N3CCc4ccccc4C3)CC2)cc1	100	85
O=C(Nc1cccc(O)c1)c1cccc(S(=O)(=O)Nc2cccc(O)c2)c1	97	95
O=C1/C(=C/c2ccccc2)COc2ccccc21	95	.

# Going on with the list.
SMILES,GIV Gai3 FP,HCMV UL50-53 inh,Sa growth inh,Sa growth inh second temp
CCC(CC)C(=O)N1c2ccccc2C(C)(c2ccccc2)CC1(C)C (stereo not given),107,-54,100,86
CC(CN1C(=O)C2C3C=CC(C2C1=O)C1C2C(=O)N(CC(C)c4ccccc4)C(=O)C2C31)c1ccccc1 (stereo not given),105,-16,.,.
CCCn1c2ccccc2c2cnn(CC(=O)NCCN(C)C3CCCCC3)c(=O)c21,110,-11,108,85
CCCCn1c(=O)c2ccccc2n2c(=S)sc(-c3ccccc3)c12,124,.,99,93
O=C(CCCN1C(=O)CCC1=O)Nc1cccc2c1CCCC2,100,-19,124,49
Cc1cc2nc(CSc3nnc(NC(=O)COc4ccc(Cl)cc4)s3)cc(=O)n2o1,106,15,.,.
c1csc(-c2nn[nH]n2)c1,.,-5,111,86
CCCNC(=O)OCC12CC3CC(CC(C3)C1)C2,104,-20,74,65
CCn1c(SCC(=O)/C(C#N)=C2\Sc3ccccc3N2C)nc2ccccc21,.,-28,82,85
Cc1ccccc1S(=O)(=O)Cc1ccc(C(=O)N2CCN(Cc3ccccc3)CC2)o1,97,4,118,92
O=C(Nc1nccs1)c1cc2c(=O)n3ccccc3nc2s1,.,-21,76,88
O=C(NC1CCCC1)c1ccccc1OCc1ccccc1,.,8,76,52
Oc1ccc(Cn2cc[nH]c2=S)cc1,101,-28,.,.
Cc1cc2cc3c(C)cc(=O)oc3c(C)c2o1,.,-34&-17,102,87
Cc1ccc(CNC(=O)c2ccc(CN3CCN(Cc4ccccc4)C3=O)cc2)cc1,103,0,.,.

# Limited to Sa growth inh, Sa growth inh second temp and GIV Gai3 FP (five entries from above):
Structure,Sa growth inh,Sa growth inh second temp,GIV Gai3 FP
CCCn1c2ccccc2c2cnn(CC(=O)NCCN(C)C3CCCCC3)c(=O)c21,108,85,110
Cc1ccccc1S(=O)(=O)Cc1ccc(C(=O)N2CCN(Cc3ccccc3)CC2)o1,118,92,97
O=C(NC1CCCC1)c1ccccc1OCc1ccccc1,76,52,.
O=C(Nc1nccs1)c1cc2c(=O)n3ccccc3nc2s1,76,88,.
CC(CN1C(=O)C2C3C=CC(C2C1=O)C1C2C(=O)N(CC(C)c4ccccc4)C(=O)C2C31)c1ccccc1 (stereo not given),.,.,105

# More records.
SMILES,GIV Gai3 FP,HCMV UL50-53 inh,Sa growth inh,Sa growth inh second temp
Cc1cccn2c(=O)c3cc(C(=O)NC4CCSC4=O)sc3nc12 (stereo not given),106,.,85,93
C=CCNc1oc(-c2ccc(C)cc2)nc1S(=O)(=O)c1ccc(C)cc1,102,-10,.,.
O=C(CN1N=C(c2ccc(Cl)cc2)CCC1=O)NCCc1ccc(Cl)cc1,105,.,102,91
O=C(Nc1cc2c(cc1C(=O)c1ccc(Br)cc1)OCCO2)c1ccc(Cl)cc1,101,-46,90,82
CC1CCCN(CCCNC(=O)c2cc(Sc3ccc(F)cc3)nc3ccccc23)C1 (stereo not given),100,.,92,84
CCOC(=O)c1cc(C)n(CC2CCC(C(=O)Nc3cc(OC)cc(OC)c3)CC2)c1C (stereo not given),103&109,8,109,98
Cc1ccc(-c2cnnc(-n3nc(C)c4c3NC(=O)CC4c3ccc(C)cc3)n2)cc1 (stereo not given),98,-29,.,.
COC(=O)CN(C)c1nnc(N)s1,99,.,119,91
CCCCN1CN=C(Nc2nc3ccccc3o2)NC1,101,.,103,81
CC(C)c1cc(C(=O)Nc2ccc3c(c2)OCCCO3)c2cnn(C(C)C)c2n1,.,-37,63,91
Cc1cc(NC(=O)c2ccc(C(F)(F)F)cc2)no1,98,3,116,93
Cc1ccc(C)c(N2CCN(S(=O)(=O)c3ccc4c(c3)C(C(C)C)C(=O)N4)CC2)c1 (stereo not given),99,.,63,28
Cc1cc(C(N)=O)c(C)n1-c1ccc(Br)cc1,.,-23,127,95
Cn1c(Sc2cnccn2)nnc1-c1ccc(F)cc1,.,-14,90,91
COc1ccc(-c2csc3ncnc(Nc4ccc(OC)c(OC)c4)c23)cc1,100,.,73,84
O=C(NCc1ccc(Cl)cc1)c1cc(-c2ccncc2)n[nH]1,106,-2,.,.
Cc1cc2ncn(S(C)(=O)=O)c2cc1C,105,7,104,110
Cc1cccc(NC(=O)Cn2c(=O)n(CCC(C)C)c(=O)c3cccnc32)c1,104,16,79,102
CC(C)CC(NCc1ccccc1O)C(=O)O (stereo not given),99,-16,108,79
N#CCSc1nnc(Cc2cccs2)n1C1CCCCC1,.,-13,93,90
O=C(COc1ccccc1)Nc1ccc2c(c1)nc1n2CCN(Cc2ccccc2)C1,110,-7,95,81
CCc1ccc(N2C(=O)N(CC(=O)N(CC)CC)c3ccccc3S2(=O)=O)cc1,100,-23,107,92
CCC(=O)Nc1ccc(C(=O)N2CCN(c3ccccc3)CC2)cc1,106,8,104,106
Cc1sc(-c2noc(C(C)C)n2)cc1S(=O)(=O)N1CCCC(C(=O)N2CCOCC2)C1 (stereo not given),108,-13,.,.
CCC(C)C(NC(=O)c1cccc(Cl)c1)C(=O)OC (stereo not given),.,-12,100,95
CCOC(=O)N1CCC(NC(=O)Cn2cccc2C(=O)c2ccccc2)CC1,107,3,89,81
CCOc1ccc(CNC(=O)CCc2c(C)nn(-c3ccc(N4CCOCC4)nn3)c2C)cc1,102,.,89,89
O=C(CSc1nncn2c1cc1sccc12)Nc1ccccc1C(F)(F)F,111,.,140,79
COc1ccc(Br)cc1/C=C1N=C(/C=C/c2ccccc2OC)OC\1=O,104,-15,.,.
Cc1cc(C(=O)NC(C)C(C)(C)C)cs1 (stereo not given),99,-3,104,101
COc1cc(-c2cc(C(F)(F)F)n3ncc(C(=O)Nc4ccc(C(C)=O)cc4)c3n2)cc(OC)c1OC,100,0,.,.
CCOC(=O)c1c(C)n(C)c2cc(Br)c(C)cc12,102,-19,100,89
CCc1ccc(NS(=O)(=O)c2ccc3c4c2CC(=O)N4CC(C)S3)cc1 (stereo not given),112,-2,.,.
Cc1ccc(-c2cccc(=O)o2)cc1,107,-115,106,74
CN(Cc1ccccc1)S(=O)(=O)c1ccc(S(=O)(=O)N(Cc2ccccc2)Cc2ccccc2F)cc1,104,-11,.,.
COc1cccc(-c2cc(C(=O)N3CCN(c4ccccc4OC)CC3)no2)c1,101,-16,87,76
CN1C(=O)C(O)(CC(=O)c2cccnc2)c2ccccc21 (stereo not given),103,-73,88,72
COc1ccccc1CNC(=O)c1ccc(N2Cc3cccc(OC)c3Oc3ncccc32)s1,104,.,88,90
CCNc1c(NC(=O)Cc2ccccc2)c(=O)oc2ccccc12,102,-13,100,91
CCCC(Nc1cccc(Br)c1)N1C(=O)CCC1=O (stereo not given),96,-3,108,107
c1ccc2[nH]c(CN3CCN(c4ncnc5sc6c(c45)CCCC6)CC3)nc2c1,99,2,.,.
CCOC(=O)c1c(NC(=S)NCc2cc(C)n(C)n2)sc2c1CCCC2,99,-8,101,86
COC(=O)c1ccc(Nc2nc(-c3ccccc3Cl)nc3ccccc23)cc1,105,-70,89,90
O=S(=O)(c1ccc(-n2cnnn2)cc1)N1CCN(c2cnccn2)CC1,105,20,.,.
Cc1cc2oc(=O)cc(CSc3nnc(-c4ccco4)n3CC(C)C)c2cc1Cl,.,-7,68,50

# Entries of single compounds, looked up by structure.
# Shown for Cc1cccc(CCNC(=O)C2CCN(S(=O)(=O)c3cccc4cccnc34)CC2)c1 = GIV Gai3 FP: 102; HCMV UL50-53 inh: .; Sa growth inh: 92; Sa growth inh second temp: 94
# Shown for Cc1cc2ncn(S(C)(=O)=O)c2cc1C = GIV Gai3 FP: 105; HCMV UL50-53 inh: 7; Sa growth inh: 104; Sa growth inh second temp: 110
# Shown for CCOC(=O)N1CCC(NC(=O)Cn2cccc2C(=O)c2ccccc2)CC1 = GIV Gai3 FP: 107; HCMV UL50-53 inh: 3; Sa growth inh: 89; Sa growth inh second temp: 81

# The results go on.
SMILES,GIV Gai3 FP,HCMV UL50-53 inh,Sa growth inh,Sa growth inh second temp
CCN(CC)C(=O)Cn1c(=O)n(Cc2ccc(C(=O)NC)cc2)c(=O)c2cc(OC)c(OC)cc21,106,-12,.,.
CN1C(=O)/C(=C2\SC(=S)N(C(CC(=O)O)C(=O)O)C2=O)c2ccccc21 (stereo not given),99,-32,96,78
Cc1ccc(OCCn2c(SCCO)nc3c(N)ncnc32)cc1,102&101,-17&-12,97,70
CCOC(=O)c1cc2c(=O)[nH]c(C(F)(F)F)nc2o1,.,-16,79,90
Cc1nc2nc(-c3ccc(Cl)cc3)[nH]n2c(=O)c1C,106,.,98,94
CCC(C)n1c(=S)[nH]c2ccccc2c1=O (stereo not given),.,-2,98,80
O=C(NCCc1ccccc1)C(F)(F)C(F)F,99,-3,108,115

# Assay outcomes (PubChem)
